rRNA inh HTS: inhibitors of bacterial rRNA selective over humanized ribosomes; E. coli WT GFP vs humanized-ribosome RFP mutants, fluorescence, 24 h; hits give low values; DMSO median 0, no signal -100; GFP signal change (wild-type ribosome), % (test concentration not listed); 350,000 tested, 1.6% active;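 active means significant combined selectivity score with lowered wild-type GFP, culture density cut under 30%, mutant RFP and density less affected; inactive means any of these conditions unmet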; further: one replicate is shown; some compounds called inactive have numbers as strong as hits
HNF4A DNA FP: change in binding of human HNF4 alpha to DNA. HNF4a-FITC DNA binding, fluorescence polarization, 1 h. activity change, % at 10 µM. 360,000 tested, 0.3% active; in the data active means activity change above about 30%, passing the limit was not always enough;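 further: controls were the assay level and a saturating level of protein; the project sought stronger binding though the title names inhibitors; some compounds called inactive have numbers as strong as hits; positive values seem to mean higher polarization but the record does not say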
Target sequence (P41235 whole entry, looked up): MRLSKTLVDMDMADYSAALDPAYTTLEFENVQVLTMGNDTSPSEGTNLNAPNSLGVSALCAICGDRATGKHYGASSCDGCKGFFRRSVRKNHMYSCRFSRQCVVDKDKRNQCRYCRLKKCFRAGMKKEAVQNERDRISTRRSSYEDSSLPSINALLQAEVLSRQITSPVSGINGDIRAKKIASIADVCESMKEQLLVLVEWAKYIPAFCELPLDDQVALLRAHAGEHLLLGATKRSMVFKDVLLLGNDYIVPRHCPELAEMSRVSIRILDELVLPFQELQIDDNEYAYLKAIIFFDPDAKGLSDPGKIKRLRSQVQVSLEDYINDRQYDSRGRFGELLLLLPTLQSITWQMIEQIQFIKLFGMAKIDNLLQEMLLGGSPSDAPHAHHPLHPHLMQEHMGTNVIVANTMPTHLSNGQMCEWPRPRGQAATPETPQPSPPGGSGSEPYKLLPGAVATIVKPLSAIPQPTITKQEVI
FGF22 binding: shifts melting point of recombinant human FGF22 | Q9HCT0 | recombinant FGF22 thermal shift, SYPRO orange fluorescence; percent of sucrose octasulfate shift, DMSO zero | calls only at 9.99 µM | 340,000 tested, 1.5% active;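 active means melting point raised past a set limit in the mean and every replicate; three in four hits are not shown here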
Target sequence (Q9HCT0 whole entry, looked up): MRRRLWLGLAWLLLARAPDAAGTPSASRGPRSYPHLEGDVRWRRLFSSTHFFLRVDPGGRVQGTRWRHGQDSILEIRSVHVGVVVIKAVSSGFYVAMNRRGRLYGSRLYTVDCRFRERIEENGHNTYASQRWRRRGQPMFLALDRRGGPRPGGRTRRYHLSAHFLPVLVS
MLL AF4-AF9 inh: MLL-AF4/AF9 protein interaction inhibition; P42568; AlphaScreen, biotin-AF4 peptide binding to FLAG-AF9; inhibition, % at 10 µM; 350,000 tested, 0.47% active; AID 651704;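 active means every replicate reaching a set inhibition limit, whatever the replicate mean, cut at about 25% in these data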;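 further: 0% = plate neutral control median and 100% = total signal loss; the record names both 10 and 1 µM as test concentration; the first replicate is given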
Vif A3G: inhibitors of Vif binding to APOBEC3G peptide, primary screen, biochemical, TR-FRET, GST-Vif 1-94, biotin-A3G peptide, dose response retest (AID 1117319); TR-FRET GST-Vif / biotin-A3G peptide binding; higher % means a stronger effect; test concentration not given here; strong numbers were not always called active; one-dose inhibition, %; IC50 in µM for titrated hits; 260,000 tested, 0.57% active;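 active means above the screen mean plus three standard deviations and confirmed in dose response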;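 further: Vif residues 1-94 fused to GST binding biotinylated APOBEC3G peptide 110-148; 0% = full assay without inhibitor and 100% = GST in place of GST-Vif; retest series ran down from 100 µM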
Ecoli growth: blocks Escherichia coli growth; OD600, 23 h; hits give low values; OD600 absorbance (test concentration not listed); 330,000 tested, 0.21% active; AID 1053175;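 active means OD600 absorbance below the run mean of sample wells minus 3.6 SD, in any replicate, cut at about 0.56 in these data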;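 further: stock transfer was 300 nL into about 60 µL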
ALR inh: human ALR oxidase inhibition via reduced H2O2; purified ALR, DTT oxidation, H2O2 HRP-luminol luminescence; P55789; 290,000 tested, 3.8% active; AID 485317; inhibition, % (no concentration beside the values);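 active means mean and each replicate at 75% or more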;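 further: stock transfer was 7.5 nL into about 7.5 µL; 0% = neutral wells and 100% = wells with inactivated enzyme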
rRNA inh HTS OD600: also measured in rRNA inh HTS; calls as there; OD600 change, %; measured here: OD600 growth;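 optical density of the mix in the first replicate; 0 = DMSO median and -100 = no signal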
rRNA inh HTS RFP: further read-out of rRNA inh HTS, marked with its call; RFP signal change, %; measured here: RFP humanized mutant strains;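 first replicate; 0 = DMSO median and -100 = no signal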
The depositor's hits bear a star; i = inactive; . = no result given; & = joins results of further samples. Some of the compounds tested; the hit share may differ from the screen's.

Values run as follows: rRNA inh HTS | rRNA inh HTS OD600 | rRNA inh HTS RFP | HNF4A DNA FP | FGF22 binding | MLL AF4-AF9 inh | Vif A3G | Ecoli growth | ALR inh
O=C(COc1ccc(Br)cc1)N1CCN(S(=O)(=O)/C=C/c2ccccc2)CC1
    4 | 1 | 0.7 | 0.4 | i | 4.4 | . | 0.68 | -6
CS(=O)(=O)Nc1cccc(NC(=O)c2ccc(-c3ccc(F)c(F)c3)c3ccoc23)c1
    -1 | -20 | 20 | -0.5 | i | -0.4 | . | . | .
O=C(Nc1ccc2oc(-c3ccc(F)cc3)nc2c1)c1ccccc1F
    . | . | . | 6.0 | . | . | -10% | 0.71 | -2
O=C1Nc2ccccc2-c2nnnn2C1N1CCCCC1 (centres undefined)
    13 | 6 | 3.4 | 6.5 | i | 0.7 | . | . | .
Cc1n[nH]c(C)c1CCc1nc2c3ccccc3nc(SCC(=O)Nc3ccccc3F)n2n1
    . | . | . | 1.8 | . | . | -1% | 0.72 | -4
CC1=C(C(=O)OC2CCCCCCC2)C(c2cc3c(cc2Br)OCO3)CC(=O)N1 (centres undefined)
    . | . | . | -2.6 | . | . | -4%&3% | 0.73 | -15
C[C@@H]1CN([C@@H](C)CO)C(=O)Cc2cc(NS(=O)(=O)c3ccc(Cl)cc3)ccc2O[C@H]1CN(C)C(=O)NC1CCCCC1
    0 | -1 | -0.1 | . | i | -2.2 | . | . | .
OC(COc1cccc(OCC(O)CN2CCOCC2)c1)CN1CCOCC1 (centres undefined)
    4&-3 | 14&6 | -2.5&-4.0 | -0.5&-0.1 | i | -5.3 | -3%&8% | 0.73&0.77 | 3&5
CCCN(CCC)c1ccc(/C=N/NC(=O)CN2CCOCC2)cc1
    . | . | . | 0.3 | . | . | -4% | . | 99*
Cc1ccc(S(=O)(=O)N(C)C[C@H]2Oc3ncc(-c4ccncc4)cc3C(=O)N([C@H](C)CO)C[C@@H]2C)cc1
    -3 | -7 | 0.9 | . | i | -0.9 | . | . | .
C[C@H](CO)N1C[C@H](C)[C@H](CN(C)Cc2ccc(Oc3ccccc3)cc2)Oc2ccc(NC(=O)C3CC3)cc2C1=O
    -43 | -66 | 8.5 | . | i | 7.3 | . | . | .
COc1ccc(-c2nc(CS(=O)CC(=O)NCc3ccco3)c(C)o2)cc1 (centres undefined)
    -4 | 8 | -6.9 | 6.2 | i | 2.7 | 68% | 0.74 | 99*
Cn1c(N)c(C(=O)COC(=O)CNS(=O)(=O)c2ccc(Cl)c(Cl)c2)c(=O)n(C)c1=O
    . | . | . | -0.6 | . | . | -4% | 0.67 | -8
COc1ccc(NC(=O)c2ccco2)cc1S(=O)(=O)N1CCCCC1
    -1 | -1 | 3.7 | 1.8 | i | -1.0 | -11% | 0.74 | 2
O=S(=O)(c1ccccc1)N1CC[C@@H]2[C@H]1c1cc(C#Cc3ccccc3F)ccc1N[C@@H]2CO
    -3 | 18 | -7.1 | . | i | -2.7 | . | . | .
COc1ccc(-c2nnc(SCC(=O)c3ccc[nH]3)o2)cc1
    . | . | . | -2.5 | . | . | 1% | 0.66 | -6
COC(=O)c1nn(-c2ccccc2)c(Cl)c1/C=N/OCc1c(Cl)cccc1Cl
    15 | 15 | 2.5 | -3.5 | . | -23 | . | . | -2
Nc1ccccc1Sc1ccc(C(=O)c2ccccc2C(=O)O)cc1[N+](=O)[O-]
    -1 | -5 | -5.2 | 5.8 | i | -0.8 | 31% | 0.71 | 46
C[C@H](CO)N1C[C@H](C)[C@@H](CN(C)S(=O)(=O)c2ccccc2)OCCCC[C@H](C)Oc2ccc(NC(=O)Cc3ccccc3)cc2C1=O
    -3 | 0 | 0.8 | . | i | 1.1 | . | . | .
COc1ccccc1NC(=O)N[C@H]1CC[C@@H](CCn2cc(-c3cccnc3)nn2)O[C@H]1CO
    -2 | -5 | 1.6 | . | i | -14 | . | . | .

Records above marked active in ALR inh:
Values run as follows: rRNA inh HTS | rRNA inh HTS OD600 | rRNA inh HTS RFP | HNF4A DNA FP | FGF22 binding | MLL AF4-AF9 inh | Vif A3G | Ecoli growth | ALR inh
CCCN(CCC)c1ccc(/C=N/NC(=O)CN2CCOCC2)cc1
    . | . | . | 0.3 | . | . | -4% | . | 99*
COc1ccc(-c2nc(CS(=O)CC(=O)NCc3ccco3)c(C)o2)cc1 (centres undefined)
    -4 | 8 | -6.9 | 6.2 | i | 2.7 | 68% | 0.74 | 99*

Carrying on:
Values run as follows: rRNA inh HTS | rRNA inh HTS OD600 | rRNA inh HTS RFP | HNF4A DNA FP | FGF22 binding | MLL AF4-AF9 inh | Vif A3G | Ecoli growth | ALR inh
C[C@@H]1CN([C@@H](C)CO)C(=O)CCCn2cc(nn2)CO[C@H]1CN(C)C(=O)Nc1cccc(C(F)(F)F)c1
    -4&1 | -4&-8 | 0.4&0.8 | . | i | -0.6&-1.9&-0.2 | . | . | .
CCOc1ccc(/C=N/NC(=O)C(C)N(c2ccc(OC)cc2)S(C)(=O)=O)cc1OCC (centres undefined)
    0 | 2 | -1.2 | -4.4 | i | 0.9 | . | . | -3
COC(=O)c1cnn(-c2ccc(F)cc2F)c1/C=N/NC(N)=S
    -19 | -16 | -4.9 | 2.8 | i | -2.4 | 8% | . | 14
O=C(Nc1nccs1)C(F)(F)C(F)(F)C(F)(F)C(=O)Nc1nccs1
    -27* | -3.1* | -5.7* | -3.7 | i | -3.9 | 0% | 0.69 | .
Cc1cc(C)n2nc(C)c(-c3ccc(Cl)cc3)c2n1
    -11 | -8 | -2.2 | 0.5 | i | -4.6 | . | 0.66 | -8
Cc1ccc(CS(=O)(=O)Cc2ccc(C(=O)NCCCN3CC(C)CC(C)C3)o2)cc1 (centres undefined)
    3 | 5 | 2.7 | 2.2 | i | -4.7 | 5% | 0.68 | -25
Cc1noc(C)c1S(=O)(=O)Nc1ccc2c(c1)C(=O)N([C@@H](C)CO)C[C@H](C)[C@@H](CN(C)Cc1ccc(C(F)(F)F)cc1)OCCCC[C@@H](C)O2
    -1 | -6 | 1.7 | . | i | 1.0 | . | . | .
COc1ccccc1C(=O)N/N=C(\C)CC(=O)Nc1ccc(Nc2ccccc2)cc1
    -5 | -3 | 5.0 | 1.1 | i | 2.8 | . | . | 57
CC=Cc1ccc2n(c1=O)C[C@@H]1[C@@H](CO)[C@H](C(=O)NCCC)N(CC3CCCC3)[C@H]21 (mixture of isomers)
    -8 | -11 | -1.2 | . | i | 1.7 | . | . | .
O=[N+]([O-])c1ccc2c(c1)C(=NO)c1cc(F)ccc1-2
    -50 | -76 | -16 | -4.6 | i | 4.5 | 7% | . | .
Cc1cccc(Nc2nc(N)nc(CN3CCC(C)CC3)n2)c1C
    15 | 10 | 2.7 | 6.4 | i | 4.3 | -6%&3% | 0.6 | -10

By substructure, those above with bromine.
Values run as follows: rRNA inh HTS | rRNA inh HTS OD600 | rRNA inh HTS RFP | HNF4A DNA FP | FGF22 binding | MLL AF4-AF9 inh | Vif A3G | Ecoli growth | ALR inh
O=C(COc1ccc(Br)cc1)N1CCN(S(=O)(=O)/C=C/c2ccccc2)CC1
    4 | 1 | 0.7 | 0.4 | i | 4.4 | . | 0.68 | -6
CC1=C(C(=O)OC2CCCCCCC2)C(c2cc3c(cc2Br)OCO3)CC(=O)N1 (centres undefined)
    . | . | . | -2.6 | . | . | -4%&3% | 0.73 | -15
